Assay outcomes: PubChem BioAssay, several laboratories
Cdc42 wt: human Cdc42 wildtype GTP binding change, either direction | GST-Cdc42 beads, Bodipy-GTP binding, flow cytometry; actives lie on both sides | percent activity (GTP binding), % at 10 µM | actives 0.2% (n = 190,000) | AID 761;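 active means percent activity GTP binding at least 20 points away from the 100% baseline, either down as inhibitor or up as activator; inconclusive means compound flagged as likely green fluorescent from well-wide comparison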;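 further: median bead fluorescence of bound Bodipy-FL-GTP at 100 nM; 0% = excess unlabeled GTP control and 100% = no compound control; below 100% means less GTP binding so inhibitor and above means activator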
Target sequence (P60953 whole entry, looked up): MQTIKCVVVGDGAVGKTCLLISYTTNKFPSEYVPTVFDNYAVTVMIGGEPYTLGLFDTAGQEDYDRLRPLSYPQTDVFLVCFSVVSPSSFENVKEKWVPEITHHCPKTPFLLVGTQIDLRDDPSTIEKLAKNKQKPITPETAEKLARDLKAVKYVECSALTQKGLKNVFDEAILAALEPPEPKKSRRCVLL
Rab2 wt GTP: changes GTP binding to wildtype dog Rab2A, up or down; P61105; GST-Rab2 wt beads, Bodipy-GTP binding, flow cytometry; GTP binding activity, % at 10 µM; actives 0.19% (n = 190,000);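 active means GTP binding activity at least 20 points away from 100%, either lowered or raised; inconclusive means signal likely due to the compound's own green fluorescence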;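 further: 0% = beads with excess unlabeled GTP and 100% = no-compound control corrected for plate trend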
GSH fluor: compound fluoresces at 488/530 nm on GSH beads. GSH beads flow cytometry, compound fluorescence 488/530 nm; active compounds read high. fluorescence (KMESF) at 10 µM. actives 0.25% (n = 190,000). AID 1776; in the data active means fluorescence above about 89;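 further: glutathione beads carrying GST-tagged Bcl family fusion proteins plus one bare bead set; values are compound well signal with DMSO vehicle wells as background; inactives centre near 16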
Rac1 mut GTP: alters GTP binding to activated mutant human Rac1 | P63000 | GST-Rac1 activated beads, fluorescent GTP binding, flow cytometry; actives lie on both sides; 100% means binding = to untreated wells | percent activity (GTP binding), % at 10 µM | actives 0.11% (n = 190,000);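 active means GTP binding at least 20 percentage points away from the 100% baseline, in either direction, so actives lie on both sides; inconclusive means Compound likely fluorescent itself, or too few beads counted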
Pf gamet viab: kills late stage P. falciparum gametocytes | P. falciparum stage V gametocytes, ATP luminescence, 24 h | inhibition, % at 10.9 µM | actives 0.065% (n = 150,000) | AID 743093;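 active means inhibition above the mean plus 3 SD of compounds within the control limits, set per campaign, cut at about 38% in these data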;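 further: 0% = DMSO wells and 100% = medium only without gametocytes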
Rac1 wt modul: modulators of human Rac1 wildtype GTP binding; GTP binding activity (% of control), % at 10 µM; P63000; GST-Rac1 beads, fluorescent GTP binding, flow cytometry; actives lie on both sides; 0 = cold GTP competed, 100 = untreated; actives 0.27% (n = 190,000);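 active means GTP binding activity at least 20 points away from the 100% control level, either lower or higher; inconclusive means compound flagged as likely green fluorescent, judged across all proteins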
Rab7 wt modul: modulators of GTP binding to dog Rab7 wildtype GTPase; GST-Rab7 beads, fluorescent GTP binding, flow cytometry; actives lie on both sides; untreated = 100%, excess cold GTP = 0%; GTP binding activity (percent of control), % at 10 µM; actives 0.055% (n = 190,000); AID 758;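 active means fluorescent GTP binding to Rab7 beads changed by at least 20 points from the 100% baseline, either direction, mostly lower; inconclusive means compound itself probably fluorescent, or too few beads counted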;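 further: median green fluorescence of bound Bodipy-FL-GTP per Rab7 bead population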
Avidin bead fluor: avidin bead compound fluorescence profile. Avidin beads, compound fluorescence 488/530 nm, flow cytometry; active compounds read high. fluorescence (KMESF) at 10 µM. actives 0.38% (n = 220,000); in the data active means fluorescence above about 47; further: inactives centre near 10
HRas wt GTP: modulators of GTP binding to human HRas wildtype; GTP binding activity, % at 10 µM; GST-Ras wt beads, Bodipy-FL-GTP binding, flow cytometry; actives lie on both sides; actives 0.14% (n = 190,000);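 active means GTP binding activity at least 20% away from the 100% baseline, either lowered as inhibitor or raised as activator; inconclusive means flagged as likely green fluorescent, judged across all proteins in the well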;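 further: 0% = unlabeled GTP competition control and 100% = no-compound control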
Target sequence (P01112 whole entry, looked up): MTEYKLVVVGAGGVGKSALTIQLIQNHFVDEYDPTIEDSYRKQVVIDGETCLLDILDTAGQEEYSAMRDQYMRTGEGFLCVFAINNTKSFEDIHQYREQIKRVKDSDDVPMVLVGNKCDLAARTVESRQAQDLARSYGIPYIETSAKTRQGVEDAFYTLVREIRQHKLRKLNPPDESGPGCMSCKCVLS
Active calls of the source: *; ? = inconclusive; . = no result given. Only part of the results is shown. The share of hits here may be higher or lower than overall.

nr	Structure	Cdc42 wt	Rab2 wt GTP	GSH fluor	Rac1 mut GTP	Pf gamet viab	Rac1 wt modul	Rab7 wt modul	Avidin bead fluor	HRas wt GTP
1	Cc1ccc(CNC(=O)CCc2ccc(S(=O)(=O)NC3CCCCC3)cc2)cc1	95	94	29	96	-9	95	92	2	94
2	CCc1cc2c(N[C@@H](Cc3c[nH]c4ccccc34)C(=O)O)ncnc2s1	97	95	10	97	-4	98	97	6	97
3	O=C(/C=C/NNC(=O)c1ccccc1)c1ccc([N+](=O)[O-])cc1	96	97	13	94	-20	100	99	12	97
4	CCOC(=O)c1cc(C#N)c(Oc2ccc(F)cc2)nc1-c1ccccc1	106	101	21	103	7	104	102	30	103
5	O=c1cc(O)c2sc3nc(-c4ccccc4)cc(C(F)(F)F)c3c2[nH]1	92	87	18	86	-1	89	91	7	92
6	CCCCC1=CC2=CC(=O)C(C)(OC(=O)CCc3ccccc3)C(=O)C2=CO1 (stereo not given)	.	.	.	.	3	.	.	9	.
7	CCNC(=S)N1CCC(NC(=O)c2ccco2)CC1	98	96	13	98	-19	100	93	11	96
8	Nc1nc(/C=C/c2cccnc2)nc(-c2ccccc2O)n1	98	92	14	99	-4	96	96	11	95
9	Cc1c(/C=N/NC(=O)c2ccccc2O)c2ccccn2c1C(=O)c1ccc(F)cc1	93	93	10	97	-28	93	98	11	95
10	O=c1[nH]c(/C=C/c2cccc3ccccc23)nc2ccccc12	102	102	22	99	4	104	105	10	104
11	Cc1nc(-c2ccccn2)sc1C(=O)Nc1ccc(F)cc1	103	103	21	101	-24	105	103	19	101
12	CC(=O)N1CCN(Cc2nc3cc(Cl)ccc3c(=O)[nH]2)CC1	93	95	16	95	9	92	100	9	93
13	Cc1cc(C(F)F)n2ncc(C(=O)N3CCCCC3)c2n1	100	100	67	101	.	100	94	7	100
14	Cc1ccc(/C=C2/NC(=O)N(c3ccccc3)C2=O)o1	102	100	28	98	-8	102	98	8	100
15	CCOC(=O)c1c(NC(=O)N/N=C/c2ccccc2OCC)sc(C(C)=O)c1C	?	?	447*	?	10	?	?	5	?
16	Nc1c(C(=O)Nc2ccc(Br)cc2)sc2nc(-c3ccco3)ccc12	92	89	41	92	-20	93	94	6	90
17	COC(=O)c1ccc(NC(=O)CC2C(=O)N(C)C(=S)N2Cc2ccc(S(N)(=O)=O)cc2)cc1 (stereo not given)	.	.	.	.	-18	.	.	11	.
18	COc1ccccc1NC(=O)N(Cc1ccccc1)C1=NCC(C)S1 (stereo not given)	99	99	15	94	-6	97	99	33	99
19	COc1ccc(OC)c(-n2c(-c3cc(-c4ccccc4)n[nH]3)n[nH]c2=S)c1	95	94	16	98	.	99	97	1	95
20	Cc1ccccc1OCCNC(=O)CSc1ccc(C(F)(F)F)cc1[N+](=O)[O-]	89	86	5	92	-7	89	92	3	93
21	CCOC(=O)N1CCN(C(=S)NC(=O)C2CCCC2)CC1	.	.	.	.	12	.	.	.	.
22	CC(C)COc1ccc(-c2nnc(-c3ccncc3)o2)cc1	100	100	13	101	-6	101	103	36	99
23	COc1ccc(NC(=O)c2cccnc2Nc2ccccc2)cc1	97	96	13	97	18	94	94	16	98
24	Cc1ccc(Nc2nc(N)nc(CSc3nccn3C)n2)cc1	99	99	55	99	-28	102	97	10	100
25	COc1ccc(-c2cnn(C3CCS(=O)(=O)C3)c2N)cc1 (stereo not given)	103	102	14	99	.	108	101	24	104
26	N/C(=N\OC(=O)c1ccco1)c1cccc(Br)c1	99	98	20	99	.	101	98	33	99
27	COC(=O)c1ccc2c(=O)[nH]c(CCl)nc2c1	97	97	24	96	37	101	99	9	98
28	CCCCN(C(=O)Nc1ccc(Cl)cc1)C1CCN(C(C)=O)CC1	104	98	34	100	12	106	101	11	101
29	COc1ccc(-c2cc(C(F)(F)F)c3c(n2)sc2c(O)cc(=O)[nH]c23)c(OC)c1	89	78*	3	89	-4	80	93	10	80
30	Cn1c(=NC(=O)CSCC(=O)N2CCOCC2)sc2ccccc21	101	101	69	100	-1	104	101	5	102
31	COc1ccc([N+](=O)[O-])cc1NC(=O)c1ccc(Br)s1	96	99	15	93	.	95	96	12	97
32	O=C(NCc1ccco1)C1(S(=O)(=O)c2ccc(Cl)cc2)CC1	105	103	30	99	4	107	103	11	103
33	COC(=O)c1ccc(OC(=O)c2nn(C)cc2Cl)c(OC)c1	103	100	19	98	.	104	100	25	101
34	O=C(/C=C/c1cn(-c2ccccc2)nc1-c1cccs1)NCCN1CCOCC1	.	.	.	.	5	.	.	6	.
35	COC(=O)N/N=C/c1c(C)c(C(=O)c2ccc(F)cc2)n2ccccc12	99	94	15	100	15	96	98	17	96
36	CCCCCCCC(=O)N/N=C(/C)c1c(O)cc(C)oc1=O	101	100	8	98	.	101	100	11	101
37	O=C(Nc1nccs1)c1cn2ccccc2n1	.	.	.	.	-7	.	.	16	.
38	COc1ccc2[nH]c(C)c(C(=O)CN(C)CC3OCCO3)c2c1	.	.	.	.	8	.	.	10	.
39	COc1ccc(C2NC(c3ccc(OC)c(OC)c3OC)C(C)C(=O)C2C)c(OC)c1OC (stereo not given)	103	103	24	100	.	106	100	32	98
40	CCC(C)n1c(-c2ccco2)nc2nc3ccccc3nc21 (stereo not given)	97	98	23	97	.	95	100	10	98
41	Cc1cc(-c2csc(NC(=O)c3ccc(=O)[nH]c3)n2)c(C)n1Cc1ccco1	.	.	.	.	6	.	.	2	.
42	CCN1C(=O)C(CC(=O)Nc2ccc(F)cc2)N(Cc2ccco2)C1=S (stereo not given)	98	98	19	94	0	101	98	9	96
43	c1ccc2c(c1)CCCN2Cc1nnnn1C1CCCC1	106	100	29	100	-9	106	96	12	102
44	COc1cccc(NC(=O)CSc2nc3ccccc3c3nc4ccccc4n23)c1	100	97	9	98	-20	102	97	4	99
45	Cn1c(C(=O)O)cc2c(=O)n3ccccc3nc21	.	.	.	.	1	.	.	11	.
46	CCc1nc(NCC2CCCN2CC)c2nnn(Cc3ccccc3F)c2n1 (stereo not given)	103	106	64	101	-3	101	99	12	104
47	COc1cccc(C(=O)Nc2ccc(C)cc2)c1	98	98	55	94	.	102	99	8	101
48	CCC(=O)NS(=O)(=O)c1cccnc1Nc1ccccc1Cl	101	101	36	101	.	99	99	5	100
49	CCOc1ccc(NC(=O)c2cnsn2)cc1	101	100	43	99	-10	105	98	8	101
50	COc1ccc(N=Cc2nc(-c3ccco3)oc2O)cc1	101	98	19	100	4	107	100	5	102
51	CCSc1nc(N)c(C#N)c(-c2ccccc2Cl)c1C#N	102	97	6	99	.	102	95	7	99
52	CCN(C(=O)c1cc2c(=O)[nH]c3ccc(C)cc3c2s1)c1cccc(C)c1	.	.	.	.	-31	.	.	8	.
53	CSc1cccc(NC(=O)CN(c2ccc(C)cc2C)S(C)(=O)=O)c1	100	99	14	98	.	101	102	36	100
54	COc1ccccc1NC(=O)CN1CCC(n2c(C)nc3cc(F)ccc32)CC1	107	106	59	101	.	114	103	6	107
55	Cc1nn(-c2ccccc2)c2[nH]c(=O)c(CNCCN3CCOCC3)cc12	98	102	56	96	.	97	102	11	100
56	Cc1sc2nc(CN3CCCC3)nc(N3CCN(C(=O)c4ccco4)CC3)c2c1C	92	92	12	97	0	100	92	13	94
57	O=C(Nc1cccc(-c2nc3ccccc3s2)c1)c1cc(=O)c2ccccc2o1	100	99	20	98	.	99	98	14	99
58	CCCCc1ccc(NC(=O)N[C@@H](C)C(=O)O)cc1	.	.	.	.	-17	.	.	4	.
59	CCc1cc2c(N[C@@H](C)C(=O)O)ncnc2s1	103	100	37	102	.	103	103	14	104
60	CN(C)c1oc(-c2ccccc2)nc1C#N	95	94	4	97	21	99	91	8	96

Four of these compounds, reformatted:
43) c1ccc2c(c1)CCCN2Cc1nnnn1C1CCCC1
44) COc1cccc(NC(=O)CSc2nc3ccccc3c3nc4ccccc4n23)c1
45) Cn1c(C(=O)O)cc2c(=O)n3ccccc3nc21
46) CCc1nc(NCC2CCCN2CC)c2nnn(Cc3ccccc3F)c2n1 (stereo not given)

| screen / no. | 43 | 44 | 45 | 46 |
| --- | --- | --- | --- | --- |
| Cdc42 wt | 106 | 100 | . | 103 |
| Rab2 wt GTP | 100 | 97 | . | 106 |
| GSH fluor | 29 | 9 | . | 64 |
| Rac1 mut GTP | 100 | 98 | . | 101 |
| Pf gamet viab | -9 | -20 | 1 | -3 |
| Rac1 wt modul | 106 | 102 | . | 101 |
| Rab7 wt modul | 96 | 97 | . | 99 |
| Avidin bead fluor | 12 | 4 | 11 | 12 |
| HRas wt GTP | 102 | 99 | . | 104 |

Next part:
nr	Structure	Cdc42 wt	Rab2 wt GTP	GSH fluor	Rac1 mut GTP	Pf gamet viab	Rac1 wt modul	Rab7 wt modul	Avidin bead fluor	HRas wt GTP
61	COc1ccc(NC(C)=O)cc1NC(C)C(=O)Nc1ccc(F)cc1 (stereo not given)	96	97	12	95	.	94	94	15	95
62	Cn1c(SCC(=O)c2ccc3c(c2)Cc2ccccc2-3)nnc1-c1ccccc1	98	98	20	95	-1	96	96	13	97
63	Cc1nn(C)c(C)c1NC(=O)CSc1nc(-c2ccccc2Cl)nc2c1cnn2-c1ccccc1	101	101	38	101	.	106	100	6	101
64	COc1ccc(OCC(=O)Nc2cccc(OC)c2)cc1	97	96	36	95	2	93	93	12	97
65	CCC(NS(=O)(=O)c1c(C)[nH]c(=O)[nH]c1=O)C12CC3CC(CC(C3)C1)C2 (stereo not given)	97	97	80	97	.	96	97	12	99
66	COc1ccc(/C=c2\sc3nc(-c4ccccc4OC)nn3c2=O)c(OC)c1	97	96	20	94	9	95	97	3	97
67	COc1ccc(C(C#N)Nc2ccccc2)cc1 (stereo not given)	104	103	32	100	.	106	99	13	102
68	Fc1ccccc1Cn1nnc2c(NCc3ccccn3)ncnc21	104	100	34	99	-10	104	98	18	103
69	Cc1ccc(N2C(=O)CN=C2Nc2nc(C)cc(C)n2)cc1	.	.	.	.	18	.	.	3	.
70	O=C(O)c1cc(-c2ccccc2Cl)n[nH]1	100	101	7	99	0	99	100	10	103
71	CCCCN(CC)CCNC(=O)c1nn(-c2ccc(OC)cc2)c(=O)c2c1c1ccccc1n2C	97	100	10	96	-11	92	97	13	98
72	COc1ccc2[nH]c(C)c(C(=O)CN3CCN(C/C=C/c4ccccc4)CC3)c2c1	106	103	38	101	-11	108	107	14	103
73	CCN(CC)c1ccc(C(=O)OCc2cc(=O)oc3cc(O)ccc23)cc1	101	95	36	94	10	100	99	11	97
74	O=S(=O)(Cc1ccccc1Cl)c1ncn[nH]1	.	.	.	.	16	.	.	8	.
75	COC(=O)Oc1ccc(/C=N/NC(=O)CSCc2ccccc2Br)cc1OC	96	95	10	96	.	97	95	9	98

4 entries already listed, sorted by molecular weight, largest number first.
nr	Structure	Cdc42 wt	Rab2 wt GTP	GSH fluor	Rac1 mut GTP	Pf gamet viab	Rac1 wt modul	Rab7 wt modul	Avidin bead fluor	HRas wt GTP
65	CCC(NS(=O)(=O)c1c(C)[nH]c(=O)[nH]c1=O)C12CC3CC(CC(C3)C1)C2 (stereo not given)	97	97	80	97	.	96	97	12	99
73	CCN(CC)c1ccc(C(=O)OCc2cc(=O)oc3cc(O)ccc23)cc1	101	95	36	94	10	100	99	11	97
61	COc1ccc(NC(C)=O)cc1NC(C)C(=O)Nc1ccc(F)cc1 (stereo not given)	96	97	12	95	.	94	94	15	95
64	COc1ccc(OCC(=O)Nc2cccc(OC)c2)cc1	97	96	36	95	2	93	93	12	97
